# Compound activity: PubChem, National Center for Advancing Translational Sciences (NCATS)
# gsp ag: qHTS for Agonist of gsp, the Etiologic Mutation Responsible for Fibrous Dysplasia/McCune-Albright Syndrome: qHTS. gsp mutant cells, cAMP HTRF, 30 min; control for the full effect not named in the record. actives 0.13% (n = 340,000). Potency, µM (highest dose often 76.9 µM), for the others: at the top dose activation (cAMP increase), most hits filed as activators. AID 624287, 2012; active = well fitted activation curve with a large enough effect; inconclusive = small, poorly fitted or top-dose-only effect, or another doubt; inactive = no such curve, though single readings can be large or run the other way; cell line not stated here;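 also: phosphodiesterase inhibitor Ro 20-1724 added with compounds to block cAMP breakdown; potency is read from the fitted curve at half-maximal effect; nearly all actives have a fitted effect of over 60% in size; about a fifth of the inactives were tested at one dose only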
#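 Cells stably selected in G418 were plated at 2000/well, grown 16-24 hr, then given compounds in DMSO with the PDE inhibitor […] (300 uM solution added) for 30 min at 37C; cAMP was read by HTRF.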
# ClpP mod: qHTS Assay for Activators of ClpP | actives 1.9% (n = 340,000) | Potency, µM (series often up to 57.5 µM), inactives show at the top dose activity change, negative = active | purified B. subtilis ClpP, FRET peptide cleavage, 20 min; active = well fitted falling curve with a large enough effect; inconclusive = small, poorly fitted or top-dose-only effect; inactive = no such curve, though single readings can be large or run the other way; also: potency is read from the fitted curve at half-maximal effect; the source files actives as falling curves though it sought activators and does not explain the sign; nearly all actives have a fitted effect of over 65% in size; many hits overshoot -100%
# Target sequence (P80244 whole entry, looked up): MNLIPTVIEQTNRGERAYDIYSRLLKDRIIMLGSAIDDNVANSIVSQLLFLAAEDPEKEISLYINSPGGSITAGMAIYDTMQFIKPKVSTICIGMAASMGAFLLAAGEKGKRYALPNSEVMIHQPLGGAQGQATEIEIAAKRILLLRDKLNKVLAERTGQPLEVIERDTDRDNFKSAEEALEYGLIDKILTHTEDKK
#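 FRET quenching reversal measured ClpP activation: 10 microg/mL B. subtilis ClpP at pH 8 with the FRET-FV decapeptide, read at 430 nm after 320 nm excitation. The 20-min minus 0-min signal was scaled between DMSO/no-enzyme wells and ADEP (5.8 microM final).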
# TRPML1 blocker: qHTS for Inhibitors of the Human Mucolipin Transient Receptor Potential 1 (TRPML1); Mucolipin-1 (Homo sapiens), Q9GZU1; TRPML1-inducible cells, Ca2+ dye fluorescence, FDSS; hits give low values; inhibition of EC80 agonist-evoked calcium signal; activity change, negative = inhibition, % (concentration not given with the values); actives 0.02% (n = 390,000); AID 624415, 2012; in the data active means activity change below about -50%; inconclusive means about -30% to -50%; inactive means above about -30%;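 also: stimulus is agonist 54-4 at its EC80 concentration; % is scaled to controls: 0 for no effect and ±100 for the full control effect; compound concentration not given in the record; the text of the record puts the active cut at -80%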
#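 Tet-induced TRPML1-DL cells loaded with Ca8 no-wash calcium dye were read kinetically on FDSS. Compound addition was followed by EC80 agonist 54-4 (4 uM final); inhibition was read over 110 s.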
# Menin-MLL FL inh: qHTS Assay for Inhibitors Targeting the Menin-MLL Interaction in MLL Related Leukemias: Competition With Fluorescein Labeled MLL-derived Peptide | FP activity change, % at 61.4 µM | Fluorescence polarization, fluorescein-MLL peptide displacement from menin | 290,000 tested, under 10 active; inconclusive = falling polarisation curve, or a change in total fluorescence; inactive = total fluorescence flat and polarisation flat or rising; no compound was filed as active; the % refers to the polarisation; negative = inhibition;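 also: % of control where 0% means no effect; inhibitors lower the polarisation; unlabelled MLL peptide was the positive control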
# Sfp inh: qHTS Assay for Inhibitors of Bacillus subtilis Sfp phosphopantetheinyl transferase (PPTase); 4'-phosphopantetheinyl transferase ffp (Bacillus subtilis), Q9F4F7; Biochemical Sfp PPTase activity, qHTS; Potency, µM, without a hit: max response, negative = inhibition, actives largely listed as inhibitors; actives 3.5% (n = 310,000); active = well fitted inhibition curve with a large enough effect; inconclusive = small, poorly fitted or top-dose-only effect, or another doubt; inactive = no such curve, though single readings can be large or run the other way;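 also: the enzyme is Sfp with the accession as filed and its product quenches rhodamine fluorescence; potency is read from the fitted curve at half-maximal effect; 0% = enzyme reaction without inhibitor and -100% = no enzyme wells; top concentration of the series not given in the record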
#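 Fluorescence-quenching assay with 15 nM Sfp, 5 uM rhodamine-CoA and 12.5 uM BHQ-2-labelled ybbR peptide in pH 7.6 Hepes/MgCl2 buffer. Enzyme was pre-incubated with compound for 15 min at room temperature. Rate was taken from the 30-min fluorescence change (525/598 nm).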
# gsp antag: qHTS for Antagonists of gsp, the Etiologic Mutation Responsible for Fibrous Dysplasia/McCune-Albright Syndrome: qHTS; Potency, µM (top dose mostly 76.9 µM), inactives show top-dose activity change, negative = inhibition, usual class: inhibitors; actives 0.4% (n = 340,000); gsp-mutant cells, cAMP HTRF, 30 min; control for the full effect not named in the record; active = falling curve of any shape with a large fitted effect; inconclusive = falling curve, mostly with a smaller effect; inactive = flat or rising curve; cell line not stated here;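 also: intracellular cAMP measured with PDE inhibitor Ro 20-1724 present during compound exposure; potency is read from the fitted curve at half-maximal effect; % is scaled to controls: 0 for no effect and ±100 for the full control effect; nearly all actives have a fitted effect of over 65% in size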
#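 Measurement of cellular cAMP by homogeneous time-resolved fluorescence following a 30 min compound exposure at 37C. The PDE inhibitor […] was present throughout; the assay buffer was DPBS with 0.05% BSA and 0.005% Tween 20.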
# TRPV1 potentiator: HTS Assay for Compounds that Act as Potentiators of the Vanilloid Receptor 1. Transient receptor potential cation channel subfamily V member 1 (Homo sapiens), Q8NER1. TRPV1-expressing cells, Fluo-8 calcium influx, capsaicin EC20 potentiation; host cell line not named in the record; control for the full effect not named in the record. potentiation, % at 8.33 µM. actives 0.02% (n = 320,000); active means potentiation above 80%; inconclusive means 30% to 80%; inactive means below 30%; also: 0% is about no effect
# Target sequence (Q8NER1 whole entry, looked up): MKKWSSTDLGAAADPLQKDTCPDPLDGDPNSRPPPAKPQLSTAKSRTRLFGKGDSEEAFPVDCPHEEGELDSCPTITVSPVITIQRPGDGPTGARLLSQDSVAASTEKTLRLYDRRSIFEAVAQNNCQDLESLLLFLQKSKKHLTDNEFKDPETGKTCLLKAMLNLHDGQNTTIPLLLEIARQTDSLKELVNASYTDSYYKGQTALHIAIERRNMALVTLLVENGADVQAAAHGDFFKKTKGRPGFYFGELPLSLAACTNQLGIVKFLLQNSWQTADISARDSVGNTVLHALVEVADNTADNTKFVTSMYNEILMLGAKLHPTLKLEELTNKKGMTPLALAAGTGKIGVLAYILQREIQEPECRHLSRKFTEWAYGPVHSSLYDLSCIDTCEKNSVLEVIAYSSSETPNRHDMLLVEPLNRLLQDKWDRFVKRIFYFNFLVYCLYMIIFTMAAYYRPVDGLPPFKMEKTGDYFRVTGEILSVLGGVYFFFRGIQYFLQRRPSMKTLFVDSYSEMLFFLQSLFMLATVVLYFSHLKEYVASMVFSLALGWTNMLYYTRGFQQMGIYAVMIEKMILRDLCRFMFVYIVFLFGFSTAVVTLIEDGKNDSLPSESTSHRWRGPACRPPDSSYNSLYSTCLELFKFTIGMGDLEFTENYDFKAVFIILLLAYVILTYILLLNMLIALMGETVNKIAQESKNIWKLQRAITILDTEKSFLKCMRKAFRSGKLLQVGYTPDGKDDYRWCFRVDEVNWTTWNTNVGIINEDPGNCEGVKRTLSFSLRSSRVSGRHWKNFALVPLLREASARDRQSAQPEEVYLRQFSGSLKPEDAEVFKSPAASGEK
#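 Cells expressing TRPV1 were dye-loaded with Fluo-8 and read kinetically: 10 s baseline, 3 min after compound (agonist portion), then 2 min after EC20 capsaicin (allosteric enhancer portion). Calcium-bound dye fluorescence at 480/520 nm.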
# * hit, by the source's call; ? = inconclusive; · = no result given; [ ] = another dose, or the depositor's remark.
(1) Cn1c(=O)n(C)c2cc(NC(=O)c3cc4ccccc4o3)ccc21
(2) O=C(Nc1cccc(S(=O)(=O)N2CCOCC2)c1)c1cc2ccccc2o1
(3) CC(C)c1ccc(-n2cnn(-c3ncccc3[N+](=O)[O-])c2=O)cc1
(4) Cc1ccccc1OCC(=O)NCC(C)(C)N1CCOCC1
(5) COc1ccc(S(=O)(=O)N2Cc3ccccc3CC2C(=O)Nc2ccc(O)cc2)cc1OC (configuration not stated)
(6) O=C(Nc1ccccc1N1CCOCC1)c1ccccc1NS(=O)(=O)c1ccc(F)c(F)c1
(7) COc1ccc(-n2cnc3c(N)nc(N)nc32)cc1
(8) O=C1/C(=C/c2cccnc2)CCc2c1[nH]c1ccccc21

entry no.	1	2	3	4	5	6	7	8
gsp ag	-3%	-30%[15.4 µM]	-8%[15.4 µM]	-2%[15.4 µM]	?	-32%[inhibitor]	11%[15.4 µM]	5%[15.4 µM]
ClpP mod	-0.4%	·	2.1%	·	-2.4%	-3.6%	1.2%	·
TRPML1 blocker	2	-12	2	21	13	-19	7	-2
Menin-MLL FL inh	-1.7	0.4	1.4	·	3.5	-1.1	·	4.8
Sfp inh	14%	5%	1%	·	8%	28%	·	0%
gsp antag	-9%	-8%	0%	9%	-12%	3.5µM*	-5%	-10%
TRPV1 potentiator	0	-3	-8	29	28	24	·	-1

(9) Cc1ccc(NC(=S)NCc2ccc(F)cc2)cc1
(10) Cn1c(CNc2ccc(Cl)cc2)nc2ccccc21
(11) C/C(=N\NC(=O)CCn1nnc2ccccc21)c1cccs1
(12) COc1ccc(NC(=O)c2c[nH]c(=O)n(-c3ccc(C)c(C)c3)c2=O)cc1OC
(13) COc1ccc(-c2[nH]c3ccccc3c2SCCN)cc1
(14) O=C(Cn1cc(C(=O)C2CC2)c2ccccc21)NC1CCCC1
(15) COc1cccc(CC2(CO)CCCN(S(=O)(=O)N(C)C)C2)c1 (configuration not stated)
(16) CN(C)CCCNC(=O)c1cc(C(=O)c2ccc(F)cc2)c[nH]1

entry no.	9	10	11	12	13	14	15	16
gsp ag	-3%[15.4 µM]	3%	-48%[inhibitor]	21%	-1%	6%	10%[15.4 µM]	-4%[15.4 µM]
ClpP mod	·	-3.7%	·	-0.9%	2.9%	-4.5%	·	·
TRPML1 blocker	-6	-15	5	7	10	7	-16	10
Menin-MLL FL inh	·	-4.9	-0.5	2.3	1.0	0.5	1.4	-2.7
Sfp inh	·	0%	12%	1%	-16%	8%	-1%	2%
gsp antag	-3%	-2%	-6%	-9%	9%	0%	-4%	8%
TRPV1 potentiator	·	17	4	6	-21	-1	7	-8

(17) CC(/C=C1\SC(=S)N(NC(=O)c2ccc(O)cc2)C1=O)=C\c1ccccc1
(18) CCCCOc1ccc(C(=O)Nc2cccc(C)n2)cc1
(19) CCN(c1ccccc1)S(=O)(=O)c1ccc(C(=O)Nc2nnc(-c3ccco3)o2)cc1
(20) CCCN(CCC)S(=O)(=O)c1ccc(C(=O)Nc2nnc(CSC)o2)cc1
(21) COc1ccc(-c2csc(NC(=S)NC(=O)/C=C/c3ccccc3)n2)cc1Br
(22) CC(=O)N1CCOc2ccc(S(=O)(=O)NCc3ccccc3Cl)cc21
(23) CCc1nnc(NC(=O)CCC(=O)NC2CCCc3ccccc32)s1 (configuration not stated)
(24) COc1cc(CN2CCNC(=O)C2CC(=O)N(Cc2nccn2C)C(C)C)cc(OC)c1 (configuration not stated)

entry no.	17	18	19	20	21	22	23	24
gsp ag	-19%	-33%	3%	-10%	0%[15.4 µM]	-61%[inhibitor]	-42%[inhibitor]	27%
ClpP mod	-4.2%	0.5%	-2.1%	0.2%	0.5%	0.1%	-3.0%	-3.5%
TRPML1 blocker	-3	11	-5	-4	16	23	2	-13
Menin-MLL FL inh	?	2.9	1.1	1.2	6.0	0.2	8.1	-0.6
Sfp inh	50µM*	9%	28%	20%	3%	14%	5%	3%
gsp antag	-5%	-17%	-9%	-19%	12%	0%	9%	11%
TRPV1 potentiator	-8	2	4	6	8	0	1	0

# An excerpt of these results, as tab-separated lines:
no.	mol	gsp ag	ClpP mod	TRPML1 blocker	Menin-MLL FL inh	Sfp inh	gsp antag	TRPV1 potentiator
22	CC(=O)N1CCOc2ccc(S(=O)(=O)NCc3ccccc3Cl)cc21	-61%[inhibitor]	0.1%	23	0.2	14%	0%	0
23	CCc1nnc(NC(=O)CCC(=O)NC2CCCc3ccccc32)s1 (configuration not stated)	-42%[inhibitor]	-3.0%	2	8.1	5%	9%	1

# (continued)
(25) CCOC(=O)C(C)Sc1nc2ccccc2c(=O)n1CC1CCCCC1 (configuration not stated)
(26) Cc1ccc(NC(=O)c2ccc(S(=O)(=O)N3CCCC3)cc2)cc1
(27) O=C(c1ccc(Br)o1)N1CCN(Cc2ccccc2Cl)CC1
(28) COc1ccc(NC(C)=O)cc1S(=O)(=O)Nc1ccc(C(=O)N2CCCC2)cc1
(29) Cc1cccc(OCCC(=O)Nc2ccc(F)c(F)c2)c1
(30) CN1c2ccsc2C(O)=C(C(=S)Nc2ccccc2)S1(=O)=O
(31) COc1cc(C2NC(=O)NC(C)=C2C(=O)OCC2CCCO2)cc(OC)c1OC (configuration not stated)
(32) O=C(Nc1cccc(O)c1)C1CCCN1C(=O)OCc1ccccc1 (configuration not stated)

entry no.	25	26	27	28	29	30	31	32
gsp ag	?	3%	-17%	4%	-1%[15.4 µM]	-1%	-2%	-28%
ClpP mod	1.8%	-6.1%	-0.4%	-0.7%	-1.4%	-0.5%	·	28µM*
TRPML1 blocker	10	-4	-2	3	23	-7	0	-5
Menin-MLL FL inh	-2.8	·	-2.4	2.3	0.1	-1.0	0.2	-2.2
Sfp inh	-20%	·	-4%	14%	-4%	56µM*	8%	3%
gsp antag	-11%	-6%	5%	17%	6%	-23%	1%	-1%
TRPV1 potentiator	-15	·	1	3	5	0	1	-8

(33) COc1ccc2c(c1OC)C(=O)N1c3ccccc3N=C(c3ccc([N+](=O)[O-])cc3)CC21 (configuration not stated)
(34) CCC(=O)N1CCN=C1SCc1ccccc1
(35) COCCNC(C(=O)Nc1ccc([N+](=O)[O-])cc1Br)c1ccccc1 (configuration not stated)
(36) O=C(NCCc1ccccc1F)[C@@H]1CSC2c3ccccc3C(=O)N21 (some centres not stated)
(37) Cc1c(C(=O)CN2CCN(c3ccccc3)CC2)c2ccccc2n1C
(38) CC1(C)CC(=O)c2cc(C(=O)N3CCN(CCO)CC3)c(=O)n(-c3ccc(Cl)cc3)c2C1
(39) CCOc1nc(OCC)c2cnn(C)c2n1
(40) COCCNC(=O)c1cc2c(=O)[nH]c3ccccc3c2s1

entry no.	33	34	35	36	37	38	39	40
gsp ag	-13%[15.4 µM]	-39%[inhibitor]	23%	-23%	-1%	3%	18%	0%
ClpP mod	1.1%	0.0%	-15%	0.3%	·	-0.1%	·	·
TRPML1 blocker	7	8	-3	10	8	-9	-6	16
Menin-MLL FL inh	2.0	-4.7	8.4	-2.1	-5.0	2.7	-23	-14
Sfp inh	20µM*	-12%	-11%	1%	-4%	10%	13%	6%
gsp antag	-10%	3%	-6%	-1%	-7%	0%	21%	-5%
TRPV1 potentiator	-1	6	-5	-2	5	-3	-3	24

# 3 records picked at random from the list so far, as already listed:
(7) COc1ccc(-n2cnc3c(N)nc(N)nc32)cc1
(18) CCCCOc1ccc(C(=O)Nc2cccc(C)n2)cc1
(9) Cc1ccc(NC(=S)NCc2ccc(F)cc2)cc1

entry no.	7	18	9
gsp ag	11%[15.4 µM]	-33%	-3%[15.4 µM]
ClpP mod	1.2%	0.5%	·
TRPML1 blocker	7	11	-6
Menin-MLL FL inh	·	2.9	·
Sfp inh	·	9%	·
gsp antag	-5%	-17%	-3%
TRPV1 potentiator	·	2	·

# More results follow.
(41) Cc1ccc(/C(O)=C2\C(=O)C(=O)N(Cc3cccnc3)C2c2ccccc2[N+](=O)[O-])cc1 (configuration not stated)
(42) O=C(NCC1CCCO1)c1cccc(N2C(=O)C3C4C=CC(C4)C3C2=O)c1 (configuration not stated)
(43) Cc1ccc(/C=C/c2nnc(-c3cccc(C)c3)o2)cc1
(44) O=C(COC(=O)/C=C/c1nc2ccccc2s1)Nc1ccccc1Oc1ccccc1
(45) Cc1ccc(C(=O)CC(=O)c2ccc(C)cc2O)cc1
(46) CC(=O)Nc1c2c(nn1-c1ccccc1C)CS(=O)C2 (configuration not stated)
(47) C=CCn1c(SCc2ccc(C(=O)Nc3ccccc3)cc2)nnc1-c1ccccc1
(48) NC(=O)NCC(=O)N1CCN(S(=O)(=O)c2ccc(Cl)s2)CC1
(49) CN1C(=O)N(C)c2cccc3cccc1c23
(50) CCn1c(=O)cc(SCC(=O)N2CCN(c3ccccn3)CC2)c2ccccc21
(51) COc1ccc(-c2ccc(N)cn2)cn1

entry no.	41	42	43	44	45	46	47	48	49	50	51
gsp ag	7%	-13%	?	17%[15.4 µM]	14%[15.4 µM]	10%	16%	-64%[inhibitor]	?	7%	10%
ClpP mod	1.2%	3.9%	32µM*	-17%	0.1%	-1.8%	0.3%	0.1%	-17%	-1.7%	-8.2%
TRPML1 blocker	3	-7	4	5	11	27	19	4	-3	-5	-7
Menin-MLL FL inh	-0.1	-1.6	-2.9	5.3	5.6	-4.6	-1.3	·	2.4	2.9	·
Sfp inh	?	17%	-10%	2%	8%	6%	16%	·	10%	0%	·
gsp antag	8%	-3%	6%	-1%	9%	8%	0%	1%	3%	-5%	1%
TRPV1 potentiator	-2	-33	9	-4	-8	-31	13	-1	2	-26	12
